# High-throughput results as filed in PubChem BioAssay.
# NS1 function inh = influenza NS1 inhibition | 0.4% of 270,000 active | S. cerevisiae slowed by influenza A NS1, growth recovery by OD600 | Potency, µM (series often up to 46.1 µM), inactives show top-dose activity, positive = more growth; note: actives are rising curves; nearly all actives have a fitted effect of over 50% in size
#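 Compounds were scored for reversing the slow growth caused by influenza A NS1 in S. cerevisiae, measured by optical density at 600 nm. Assay medium contained 2% galactose at pH 6.0; NS1-free yeast of the same strain were the positive control.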
# LASV entry inh = inhibitors of Lassa virus binding or cell entry; Lassa virus pseudotype entry inhibition, cell reporter; control for the full effect not named in the record; Potency, µM (top dose mostly 37.9 µM), for the others: at the top dose activity change, negative = inhibition, usual class: inhibitors; 1.2% of 300,000 active; AID 540256; active means well fitted inhibition curve with a large enough effect; inconclusive means small, poorly fitted or top-dose-only effect, or effect the other way; inactive means flat fitted curve, though single readings scatter; tested in HEK293 cells; note: % is set by controls: 0 for no effect and ±100 for the full control effect; nearly all actives have a fitted effect of over 50% in size; luciferase read-out
# RE007 growth inh = less growth of the S. pombe RE007 Vpr strain | S. pombe RE007 Vpr strain, BacTiter-Glo ATP luminescence, 24 h; control for the full effect not named in the record | AID 651644 | 0.21% of 360,000 active | Potency, µM (top dose mostly 92.2 µM), for inactives: top-dose activity change, negative = less growth; active = well fitted falling curve with a large enough effect; inconclusive = small, poorly fitted or top-dose-only effect; inactive = no such curve, though single readings can be large or run the other way;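 note: % is set by controls: 0 for no effect and ±100 for the full control effect; nearly all actives have a fitted effect of over 50% in size; the assay follows cell death caused by Vpr and the record does not say whether a fall means rescue or toxicity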
#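 Fission yeast strain RE007, carrying one chromosomally integrated HIV-1 vpr copy, was seeded at OD 0.01 in PMG+AL medium with 23 nL pinned compound. After 24 h at 30 °C and 99% humidity, viability was read by BacTiter-Glo luminescence.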
# StopGo reporter = FMDV 2A StopGo reporter, luciferase signal. human cells with a luciferase reporter of 2A StopGo recoding; control for the full effect not named in the record. Potency, µM (top dose mostly 57.9 µM), inactives show top-dose signal change, negative = less light. AID 1159524. 1.2% of 410,000 active; active = well fitted falling curve with a large enough effect; inconclusive = small, poorly fitted or top-dose-only effect; inactive = no such curve, though single readings can be large or run the other way; tested in HEK293T cells; note: % is set by controls: 0 for no effect and ±100 for the full control effect; nearly all actives have a fitted effect of over 45% in size; luciferase light after 4 h
# Cruzain inh noDet = blocks cruzain activity in detergent-free assay | purified cruzain, Z-FR-AMC fluorescence, no detergent | Potency, µM, for the others: max response, negative = inhibition, hits mostly inhibitors | 2.3% of 200,000 active | AID 1476; active = well fitted curve in the direction sought with a large enough effect; inconclusive = small, poorly fitted or top-dose-only effect, or another doubt; inactive = no such curve, though single readings can be large; an effect the other way counts as inactive or inconclusive;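 note: plate controls were enzyme without inhibitor for no effect and buffer without enzyme for full effect; nearly all actives have a fitted effect of over 40% in size; top concentration of the series not given in the record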
# Target sequence (P25779 123-467 limits assumed): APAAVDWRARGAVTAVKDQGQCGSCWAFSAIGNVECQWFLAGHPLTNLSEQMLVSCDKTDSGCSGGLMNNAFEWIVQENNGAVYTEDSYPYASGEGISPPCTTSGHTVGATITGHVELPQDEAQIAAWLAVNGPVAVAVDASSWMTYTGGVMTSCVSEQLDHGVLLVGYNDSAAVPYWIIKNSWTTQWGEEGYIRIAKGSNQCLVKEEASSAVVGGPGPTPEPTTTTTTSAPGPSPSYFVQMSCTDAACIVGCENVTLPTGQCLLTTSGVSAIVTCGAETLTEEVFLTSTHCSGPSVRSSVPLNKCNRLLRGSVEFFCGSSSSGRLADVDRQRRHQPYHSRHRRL
#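 Purified cruzain at 1.5 nM, pre-incubated 15 min with compound at room temperature in 100 mM sodium acetate pH 5.5, 5 mM DTT, 0.00005% Triton X-100. Reaction started with 2 uM Z-FR-AMC; AMC fluorescence increase over 60 s gives rate.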
# Cruzain Triton = cruzain (T. cruzi) inhibition with detergent; P25779; purified cruzain, Z-FR-AMC fluorescence, 0.01% Triton; Potency, µM, for inactives: max response, negative = inhibition, most hits filed as inhibitors; 0.43% of 200,000 active; AID 1478; active = well fitted curve in the direction sought with a large enough effect; inconclusive = small, poorly fitted or top-dose-only effect, or another doubt; inactive = no such curve, though single readings can be large; an effect the other way counts as inactive or inconclusive;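 note: plate controls were neutral wells for no effect and buffer without enzyme for full effect; nearly all actives have a fitted effect of over 40% in size; top concentration of the series not given in the record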
#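 Z-FR-AMC hydrolysis (2 uM substrate) by cruzain (1.5 nM) monitored kinetically at ex 360/em 450 nm after 15 min room-temperature compound exposure; 0.01% Triton X-100, pH 5.5, 5 mM DTT.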
# SARS PLP yeast = blocks SARS-CoV papain-like protease in a yeast assay. S. cerevisiae expressing SARS-CoV PLpro, growth rescue; control for the full effect not named in the record. 0.19% of 330,000 active. Potency, µM (titrated, usually from 32.9 µM), for the others: at the top dose activity, positive = growth rescue; note: 0% is about no effect; nearly all actives have a fitted effect of over 55% in size; growth read by luminescence after 48 h
# MARV entry inh = Marburg virus entry inhibition. AID 540276. 1.8% of 300,000 active. Marburg virus pseudotyped entry inhibition, cell reporter; control for the full effect not named in the record; about a third of the inactives were read at about 46 µM. Potency, µM (series often up to 37.8 µM), without a hit: at the highest dose activity change, negative = inhibition, actives largely listed as inhibitors; active = well fitted inhibition curve with a large enough effect; inconclusive = small, poorly fitted or top-dose-only effect, or effect the other way; inactive = flat fitted curve, though single readings scatter; tested in HEK293 cells; about a fifth of its hits are not listed in these tables; note: % is set by controls: 0 for no effect and ±100 for the full control effect; luciferase read-out
# Numbers without * were called inactive; ? = inconclusive; nt = no result given; [ ] = remark or other dose. Unless noted, calls come from the whole dose curve; as a rule, active means well fitted rising curve with a large enough effect; inconclusive means small, poorly fitted or top-dose-only effect; inactive means no such curve, though single readings can be large or run the other way. Potency is the fitted concentration of half-maximal effect.
# The line under a structure holds: NS1 function inh, LASV entry inh, RE007 growth inh, StopGo reporter, Cruzain inh noDet, Cruzain Triton, SARS PLP yeast, MARV entry inh
CN(C)c1ccc(/C=N/NC(=O)CNC(=O)c2ccc3c(c2)OCCO3)cc1
    nt, -8%, 9%, 3%, nt, nt, 0%, 19%
Oc1ccc2ccccc2c1CNc1ccc(Br)cc1
    9%, nt, -14%, -9%, nt, nt, 1%, nt
CS(=O)(=O)N(CC(=O)N1CCCCCC1)c1cccc(F)c1
    16%, -7%, 1%, 13%, nt, nt, 2%, ?
O=[N+]([O-])c1ccccc1CNc1ccc(F)c(Cl)c1
    -16%, -6%, -11%, -10%, -9%, -8.2%, 1%, -8%
COc1ccccc1CC(=O)N1CCN(C(=O)c2ccco2)CC1
    6%, 2%[46.1 µM], 2%, -15%, nt, nt, 11%, ?
Cn1ccnc1SCC(=O)Nc1cccc(S(=O)(=O)N2CCCCCC2)c1
    nt, ?, 5%, 12%, nt, nt, 2%, ?
CCOc1ccc(NS(=O)(=O)c2ccc3c(c2)n(C)c(=O)n3C)cc1
    4%, nt, -13%, 15%, nt, nt, -1%, nt
CCCC(=O)NNC(=O)Nc1ccccc1
    11%, 15%, 2%, 14%, -2%, 4.1%, 5%, -3%
Cc1ccccc1N1CCN(C(=O)C2CCC(=O)N(C3CCCC3)C2)CC1 (configuration not stated)
    -2%, nt, -6%, -18%, nt, nt, -8%, nt
COc1ccc(OCc2nnc(SCC(=O)Nc3nnc(C4CC4)s3)n2C)cc1
    3%, 22%, -24%, 5%, nt, nt, -1%, 7%

# An excerpt from above in order of length of the SMILES, ascending.
# The line under a structure holds: NS1 function inh, LASV entry inh, RE007 growth inh, StopGo reporter, Cruzain inh noDet, Cruzain Triton, SARS PLP yeast, MARV entry inh
Cn1ccnc1SCC(=O)Nc1cccc(S(=O)(=O)N2CCCCCC2)c1
    nt, ?, 5%, 12%, nt, nt, 2%, ?
CCOc1ccc(NS(=O)(=O)c2ccc3c(c2)n(C)c(=O)n3C)cc1
    4%, nt, -13%, 15%, nt, nt, -1%, nt
CN(C)c1ccc(/C=N/NC(=O)CNC(=O)c2ccc3c(c2)OCCO3)cc1
    nt, -8%, 9%, 3%, nt, nt, 0%, 19%

# Full records from above:
# `Cn1ccnc1SCC(=O)Nc1cccc(S(=O)(=O)N2CCCCCC2)c1` is listed with NS1 function inh = nt; LASV entry inh = ?; RE007 growth inh = 5%; StopGo reporter = 12%; Cruzain inh noDet = nt; Cruzain Triton = nt; SARS PLP yeast = 2%; MARV entry inh = ?
# `COc1ccccc1CC(=O)N1CCN(C(=O)c2ccco2)CC1` is listed with NS1 function inh = 6%; LASV entry inh = 2%[46.1 µM]; RE007 growth inh = 2%; StopGo reporter = -15%; Cruzain inh noDet = nt; Cruzain Triton = nt; SARS PLP yeast = 11%; MARV entry inh = ?

# Additional results.
# The line under a structure holds: NS1 function inh, LASV entry inh, RE007 growth inh, StopGo reporter, Cruzain inh noDet, Cruzain Triton, SARS PLP yeast, MARV entry inh
Cc1cc(C(=O)CSc2ccc(Cl)cc2)cc(C)c1OC(=S)N(C)C
    6%, -8%, -2%, 14%, -22%, -0.3%, 3%, ?
O=C(Nc1cccc(NC(=O)c2ccccc2Cl)c1)c1ccc([N+](=O)[O-])o1
    -5%, ?, 10%, -21%, nt, nt, -12%, ?
CCc1ccc(OCC(=O)Nc2cc(-c3nc4cc(C)ccc4o3)ccc2C)cc1
    nt, ?, nt, 0%, -15%, -0.5%, nt, ?
Cc1cc(C)n2nc(SCn3nnc4ccccc4c3=O)nc2n1
    0%, 7%, -1%, nt, -9%, -1.6%, 11%, 19%
Cc1ccc2nc(Cl)c3cc(C(=O)N4CCCC(C)C4)sc3c2c1 (configuration not stated)
    nt, 13%[46.1 µM], nt, 2%, -10%, -3.9%, nt, 3%[46.1 µM]
CCCCN(C)Cc1cc(=O)oc2cc3c(cc12)CCCC3
    -30%, 3%, -21%, -13%, nt, nt, -1%, ?
CCc1nn(CC(=O)NCc2ccccc2)c(=O)c2cccn12
    nt, 11µM*, nt, -6%, 1%, -5.0%, nt, ?
COC(=O)C1=C(C(=O)OC)[C@@H]2N(C)c3ccc(OC)cc3[C@@]23C[C@@H](C(=O)OC)N(C(=O)c2cccs2)C3=N1
    4%, nt, 7%, -24%, nt, nt, 0%, ?
CCn1c(-c2ccccc2)c(C(=O)CC#N)c2ccccc21
    7%, -20%[46.1 µM], -1%, ?, nt, nt, -10%, ?
OCCOc1ccc(CN2CCCC(N3CCN(c4ccc(F)cc4)CC3)C2)cc1 (configuration not stated)
    9%, nt, -29%, -26%, nt, nt, -2%, nt

# Three records drawn at random from those above:
# The line under a structure holds: NS1 function inh, LASV entry inh, RE007 growth inh, StopGo reporter, Cruzain inh noDet, Cruzain Triton, SARS PLP yeast, MARV entry inh
Cc1ccccc1N1CCN(C(=O)C2CCC(=O)N(C3CCCC3)C2)CC1 (configuration not stated)
    -2%, nt, -6%, -18%, nt, nt, -8%, nt
CCCC(=O)NNC(=O)Nc1ccccc1
    11%, 15%, 2%, 14%, -2%, 4.1%, 5%, -3%
Cc1ccc2nc(Cl)c3cc(C(=O)N4CCCC(C)C4)sc3c2c1 (configuration not stated)
    nt, 13%[46.1 µM], nt, 2%, -10%, -3.9%, nt, 3%[46.1 µM]

# Carrying on:
# The line under a structure holds: NS1 function inh, LASV entry inh, RE007 growth inh, StopGo reporter, Cruzain inh noDet, Cruzain Triton, SARS PLP yeast, MARV entry inh
S=C1NCN(Cc2ccco2)CN1Cc1ccco1
    9%, nt, -4%, -9%, nt, nt, 1%, -4%
O=C(Nc1ccc2c(c1)OCO2)C1CCCN(c2nc3ccccc3s2)C1 (configuration not stated)
    -18%, 1%, 5%, ?, ?, -11%, -13%, -7%
O=C(NCC(=O)N(c1ccc(F)cc1)C(C(=O)NC1CCCCC1)c1ccncc1)c1ccco1 (configuration not stated)
    -36%, -6%, -4%, 13%, nt, nt, 1%, 4%
O=C(CN1CCCC1)N/N=C/c1c(O)ccc2ccccc12
    -16%, nt, 4%, -17%, nt, nt, -1%, nt
O=C(CCN1C(=O)COc2ccccc21)NCc1ccco1
    8%, 14%, -8%, nt, -7%, 0.9%, 2%, 5%
CCOC(=O)c1ccccc1-c1cn2cc(Cl)ccc2n1
    nt, -5%, -16%, 30%, nt, nt, -6%, -12%[46.1 µM]
CCCN1CCC(NC(=O)CC2C(=O)NCCN2Cc2cccc(OC)c2)CC1 (configuration not stated)
    18%, nt, 2%, -1%, nt, nt, 1%, nt
COc1cc(Nc2c3ccccc3nc3ccccc23)cc(OC)c1OC
    -2%, ?, -6%, -24%, nt, nt, -1%, 2.8µM*
O=C(CN1CCN(Cc2ccccc2)CC1)N=Nc1c(O)[nH]c2ccccc12
    11%, -13%, 0%, ?, -3%, -3.1%, 4%, 2%
COc1ccc(C)cc1NC(=O)CSCc1ccccc1C
    -24%, -2%, 38%, -27%, nt, nt, -9%, ?
COc1ccc(/C=C\C(=O)c2c(O)ccc3c(C)cc(=O)oc23)cc1OC
    5%, ?, -9%, 35µM*, ?, -5.3%, 3%, ?
Cc1cccc(C)c1NS(=O)(=O)c1ccc(NS(=O)(=O)c2ccc3c(c2)OCCO3)cc1
    nt, -19%[46.1 µM], nt, -13%, -6%, -8.3%, nt, ?
O=C(COC(=O)c1n[nH]c2ccccc12)c1ccc(F)c(F)c1
    nt, -23%, -4%, 2%, nt, nt, -8%, 6%[46.1 µM]

# By substructure, the compounds so far with an NH in an aromatic ring (2)
# The line under a structure holds: NS1 function inh, LASV entry inh, RE007 growth inh, StopGo reporter, Cruzain inh noDet, Cruzain Triton, SARS PLP yeast, MARV entry inh
O=C(CN1CCN(Cc2ccccc2)CC1)N=Nc1c(O)[nH]c2ccccc12
    11%, -13%, 0%, ?, -3%, -3.1%, 4%, 2%
O=C(COC(=O)c1n[nH]c2ccccc12)c1ccc(F)c(F)c1
    nt, -23%, -4%, 2%, nt, nt, -8%, 6%[46.1 µM]
